DUX4 inh: DUX4-mediated transcription inhibition | 293T-iDUX4 ZSCAN4-Gaussia luciferase reporter, 24 h; hits give low values | activity change, negative = inhibition, % (no concentration beside the values) | 0.8% of 37,000 active | AID 1224904;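 active = -10% or lower and over 25 points stronger than a control reporter; inconclusive = -10% or lower with a smaller gap; inactive = above -10%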;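 also: 0% = median of neutral control wells and -100% = median of positive control wells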
DUX4 inh difference: recorded beside DUX4 inh, whose call it bears; Gaussia minus Italica difference, %; measured here: selective DUX4 reporter inhibition;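 worked out from the two reporters; negative = selective loss of the DUX4 reporter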
DUX4 inh control: further read-out of DUX4 inh, marked with its call; activity change, negative = inhibition, %; measured here: Italica tet-on control reporter;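 0 = neutral control and -100 = positive control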
Numbers without * were called inactive; ? = inconclusive; nt = not tested or not shown. A portion of the library; rates above refer to the full screens.

Start of the listing, in advance:
1) COC(=O)C[C@@H]1CC[C@@H]2[C@@H](COc3ccc(NC(=O)Nc4cc(C)cc(C)c4)cc3C(=O)N2C)O1
2) N#C[C@@H]1[C@H](c2ccccc2C2=CCCCC2)[C@H](CO)N1C(=O)C1CCOCC1
3) CNC(=O)C[C@@H]1CC[C@@H]2[C@H](COc3ccc(NC(=O)Nc4ccc(F)c(F)c4)cc3C(=O)N2C)O1
4) Cc1ccc(S(=O)(=O)N(C)C[C@H]2Oc3ccc(NC(=O)CCCN(C)C)cc3C(=O)N([C@@H](C)CO)C[C@H]2C)cc1

Screen / compound no.	1	2	3	4
DUX4 inh	-2	4	-2	2
DUX4 inh difference	-3	-3	-5	-2
DUX4 inh control	0.6	7.1	3.7	4.7

The list itself, from the first entry:
1) COC(=O)C[C@@H]1CC[C@@H]2[C@@H](COc3ccc(NC(=O)Nc4cc(C)cc(C)c4)cc3C(=O)N2C)O1
2) N#C[C@@H]1[C@H](c2ccccc2C2=CCCCC2)[C@H](CO)N1C(=O)C1CCOCC1
3) CNC(=O)C[C@@H]1CC[C@@H]2[C@H](COc3ccc(NC(=O)Nc4ccc(F)c(F)c4)cc3C(=O)N2C)O1
4) Cc1ccc(S(=O)(=O)N(C)C[C@H]2Oc3ccc(NC(=O)CCCN(C)C)cc3C(=O)N([C@@H](C)CO)C[C@H]2C)cc1
5) O=C(c1ccc2c(c1)OCO2)N1CC2(C1)[C@@H](c1ccccc1)[C@@H](CO)N2C(=O)C1CCC1
6) COc1ccc(S(=O)(=O)N2C[C@@H](O)COC[C@H]3O[C@H](CC(=O)NCCN4CCCCC4)CC[C@@H]32)cc1
7) COc1ccccc1NC(=O)N1C[C@@H]2[C@H](c3ccccc31)[C@H](CO)N2C(=O)C1CCCC1
8) COc1ccc(NC(=O)N2CC[C@@H]3[C@H]2c2cc(Br)ccc2N(C)[C@@H]3CO)cc1

Screen / compound no.	1	2	3	4	5	6	7	8
DUX4 inh	-2	4	-2	2	3	7	3	-9
DUX4 inh difference	-3	-3	-5	-2	3	4	-6	-5
DUX4 inh control	0.6	7.1	3.7	4.7	0.2	3.1	9.1	-4.0

9) CCN1[C@@H]2Cn3c(ccc(C4=CCCCC4)c3=O)[C@H]1[C@@H](C(=O)NCC(F)(F)F)[C@@H]2CO
10) C[C@@H]1CN([C@@H](C)CO)C(=O)c2cc(NC(=O)c3ccncc3)ccc2O[C@@H](C)CCCCO[C@@H]1CN(C)C(=O)Cc1ccccc1
11) C[C@H]1CN([C@@H](C)CO)C(=O)CCCn2nncc2CO[C@@H]1CN(C)Cc1ccc(-c2ccccc2)cc1
12) COc1ccccc1CN1CC2(C1)[C@H](c1ccccc1)[C@@H](CO)N2Cc1ccccc1
13) O=C(NC1CCCC1)N1CC(=O)N2[C@H](C1)[C@@H](c1ccc(/C=C/c3ccccc3)cc1)[C@@H]2CO
14) CO[C@@H]1CC[C@H]2CCN(C)C(=O)C[C@H](c3ccccc3)CN(C)C(=O)c3cc(C#N)ccc3OC[C@@H]1O2
15) CCCC(=O)Nc1ccc2c(c1)C(=O)N(C)C[C@@H](OC)[C@H](C)CN(Cc1ccc(F)cc1)[C@H](C)CO2
16) COc1ccc2c3c([nH]c2c1)[C@H](CO)N(C(=O)NC(C)C)CC31CCN(C(=O)NC2CCCC2)CC1

Screen / compound no.	9	10	11	12	13	14	15	16
DUX4 inh	-4	4	?	?	1	-4	?	?
DUX4 inh difference	-7	9	nt	nt	2	-2	nt	nt
DUX4 inh control	3.4	-4.8	nt	nt	-1.1	-2.3	nt	nt

17) O=C(Nc1nccs1)[C@@H]1[C@@H](CO)[C@@H]2Cn3c(cccc3=O)[C@@H]2N1C(=O)C1CCCCC1
18) C[C@H]1CN([C@@H](C)CO)C(=O)c2cc(/C=C/c3ccccc3)cnc2O[C@H]1CN(C)C(=O)Cc1ccccn1
19) COc1ccc(NC(=O)Nc2ccc3c(c2)[C@@H]2C[C@@H](CC(=O)N4CCN(C)CC4)O[C@@H](CO)[C@@H]2O3)cc1
20) CN(C)CC(=O)N1[C@@H](CO)[C@H](c2ccccc2)C12CN(C(=O)C1CCCC1)C2
21) O=C(C[C@@H]1CC[C@@H](NC(=O)c2cccnc2)[C@@H](CO)O1)NCc1ccc(Cl)c(Cl)c1
22) COCC(=O)N1CC[C@@H]2[C@H]1c1cc(-c3ccc(C#N)cc3)ccc1N[C@@H]2CO
23) O=C(c1cccc(F)c1)N1CC(=O)N2[C@H](C1)[C@H](c1ccc(-c3ccccc3F)cc1)[C@@H]2CO
24) COc1ccc2c3c(n(C)c2c1)[C@H](CO)N(C(=O)C1CC1)CC31CN(Cc2ccccc2OC)C1

Screen / compound no.	17	18	19	20	21	22	23	24
DUX4 inh	2	-1	3	9	1	-34*	3	?
DUX4 inh difference	4	-1	5	5	4	-28*	-7	nt
DUX4 inh control	-2.0	-0.3	-2.6	4.2	-2.7	-5.5*	10	nt

25) COc1ccc(S(=O)(=O)N2C[C@H](O)COC[C@@H]3O[C@H](CC(=O)NCCN4CCCCC4)CC[C@H]32)cc1
26) COCC(=O)N1CCCCN2[C@H](C1)[C@@H](c1ccc(-c3ccc(F)cc3)cc1)[C@@H]2CO
27) COCC#Cc1ccc([C@@H]2[C@H]3CN(C(=O)CN4CCOCC4)CC(=O)N3[C@H]2CO)cc1
28) COc1cccc(C(=O)Nc2ccc3c(c2)OC[C@H](C)N(CCc2ccccc2)C[C@H](C)[C@@H](OC)CN(C)C3=O)c1
29) CCc1cnc(N2[C@H](C#N)[C@H](c3ccccc3-c3ccccc3C)[C@H]2CO)s1
30) O=C(C[C@H]1C[C@@H]2c3cc(NS(=O)(=O)c4ccc(F)cc4)ccc3O[C@@H]2[C@H](CO)O1)NC1CCCCC1
31) COc1ccc(S(=O)(=O)Nc2ccc3c(c2)C(=O)N([C@H](C)CO)C[C@H](C)[C@@H](CN(C)S(=O)(=O)c2cn(C)cn2)OCCCC[C@@H](C)O3)cc1
32) COc1ccc2c3c([nH]c2c1)[C@@H](CO)N(C(=O)NC(C)C)CC31CN(Cc2ccccc2)C1

Screen / compound no.	25	26	27	28	29	30	31	32
DUX4 inh	-2	23	7	?	-2	-1	0	-5
DUX4 inh difference	-3	13	4	nt	-9	3	0	-2
DUX4 inh control	1.0	9.9	3.6	nt	6.4	-3.8	0.1	-2.7

33) CN1C(=O)c2cc(NC(=O)c3ccccc3F)ccc2OC[C@H]2O[C@H](CC(=O)NCc3ccc4c(c3)OCO4)CC[C@H]21
34) O=C(NCC1CCCCC1)[C@H]1[C@H](CO)[C@H]2Cn3c(ccc(-c4ccccc4)c3=O)[C@@H]1N2
35) COc1ccc2c3c(n(C)c2c1)[C@H](CO)N(Cc1ccc(F)cc1)CC31CN(C)C1
36) O=C(C1CC1)N1CC2(C1)[C@H](c1ccccc1)[C@H](CO)N2CC1CCCC1
37) C[C@@H]1CN([C@@H](C)CO)C(=O)c2cc(N(C)C)ccc2O[C@H]1CN(C)S(=O)(=O)c1cn(C)cn1
38) N#C[C@@H]1[C@H](c2ccc(-c3cncnc3)cc2)[C@H](CO)N1C(=O)C1CC1
39) OC[C@H]1[C@@H](c2ccc(-c3cccc(F)c3)cc2)[C@H]2CN(CCC(F)(F)F)CCCCN21
40) C[C@@H]1CCCCO[C@H](CN(C)S(=O)(=O)c2ccc(F)cc2)[C@@H](C)CN([C@H](C)CO)C(=O)c2cc(N(C)C)ccc2O1

Screen / compound no.	33	34	35	36	37	38	39	40
DUX4 inh	-1	-6	-5	?	-4	2	-47*	4
DUX4 inh difference	-3	-8	-6	nt	-3	1	-32*	1
DUX4 inh control	1.4	1.9	0.7	nt	-0.6	0.7	-16*	3.1

41) C[C@H](CO)N1C[C@H](C)[C@H](CN(C)C(=O)c2cccnc2)Oc2ncc(-c3ccc(C(=O)N(C)C)cc3)cc2C1=O
42) C[C@@H]1CN([C@H](C)CO)C(=O)c2c(c3ccccc3n2C)-c2ccccc2CO[C@@H]1CN(C)Cc1ccc(Cl)c(Cl)c1
43) Cc1noc(C)c1S(=O)(=O)Nc1ccc2c(c1)C(=O)N([C@H](C)CO)C[C@H](C)[C@@H](CN(C)C(=O)CCC(F)(F)F)OCCCC[C@H](C)O2
44) COc1ccc(CNC(=O)C[C@H]2C=C[C@@H](NC(=O)c3cccc(F)c3)[C@@H](CO)O2)cc1
45) CN1CCCCN2[C@H](CO)[C@@H](c3ccc(Br)cc3)[C@H]2C1
46) C[C@@H]1CN([C@@H](C)CO)C(=O)Cc2cc(NC(=O)CCC(F)(F)F)ccc2O[C@@H]1CN(C)S(=O)(=O)c1ccc(Cl)cc1
47) Cc1ccc(S(=O)(=O)N(C)C[C@@H]2Oc3cc(C#CC4CCCC4)ccc3S(=O)(=O)N([C@@H](C)CO)C[C@@H]2C)cc1
48) COc1ccc(NC(=O)Nc2ccc3c(c2)[C@@H]2C[C@@H](CC(=O)NCCc4ccccc4)O[C@@H](CO)[C@@H]2O3)cc1

Screen / compound no.	41	42	43	44	45	46	47	48
DUX4 inh	0	-19*	?	-6	21	0	-1	-7
DUX4 inh difference	-2	-25*	nt	-5	24	-1	-3	-16
DUX4 inh control	2.0	6.4*	nt	-1.1	-3.1	1.5	2.1	8.9

49) CCCNC(=O)N1[C@H](CO)[C@H](c2ccccc2)C12CN(C(=O)c1cccnc1)C2
50) CCCNC(=O)Nc1ccc2c(c1)C(=O)N(C)C[C@H](OC)[C@@H](C)CN(Cc1cccnc1)[C@H](C)CO2
51) O=C(NC1CCC1)[C@H]1[C@H](CO)[C@H]2Cn3c(ccc(C4=CCCC4)c3=O)[C@@H]1N2CC1CC1
52) N#Cc1cccc(-c2ccc3c(c2)[C@H]2[C@H](CCN2S(=O)(=O)c2ccccc2F)[C@@H](CO)N3)c1
53) O=C(Nc1ccc2c(c1)[C@@H]1C[C@@H](CC(=O)N3CCc4ccccc4C3)O[C@H](CO)[C@@H]1O2)c1cccnc1
54) COCC(=O)N(C)C[C@@H]1Oc2ncc(-c3ccc(F)cc3)cc2C(=O)N([C@@H](C)CO)C[C@@H]1C
55) CC(C)NC(=O)N1C[C@H]2[C@@H](c3ccccc31)[C@@H](CO)N2C(=O)Nc1cccc(F)c1
56) O=C(C[C@@H]1C=C[C@H](NS(=O)(=O)c2cccc(F)c2)[C@H](CO)O1)N1CCCCC1

Screen / compound no.	49	50	51	52	53	54	55	56
DUX4 inh	2	3	-5	?	1	0	-2	-1
DUX4 inh difference	3	3	-2	nt	4	1	-3	-6
DUX4 inh control	-1.1	0.1	-2.2	nt	-2.3	-1.6	1.0	4.3

57) C[C@H](CO)N1C[C@H](C)[C@H](CN(C)C(=O)Nc2ccc3c(c2)OCO3)Oc2c(NC(=O)C3CCOCC3)cccc2C1=O
58) CC(C)C#Cc1ccc([C@H]2[C@@H](CO)N3C(=O)CN(C(=O)NC4CCCC4)C[C@H]23)cc1
59) C/C=C/c1ccc([C@H]2[C@H](CO)N[C@H]2CN(CC)C(=O)c2ccccn2)cc1
60) CC(C)c1cn(CC[C@@H]2CC[C@@H](NC(=O)c3cccc(F)c3)[C@H](CO)O2)nn1
61) COc1ccccc1CNC(=O)C[C@@H]1CC[C@H]2[C@H](COc3ccc(NC(C)=O)cc3C(=O)N2C)O1
62) CO[C@H](CN(C)Cc1nccs1)[C@@H](C)CN([C@@H](C)CO)S(=O)(=O)c1ccc(C)cc1
63) O=C(Nc1ccccc1)N1CC(=O)N2[C@H](CO)[C@H](c3ccc(-c4ccc(F)cc4)cc3)[C@@H]2C1
64) C[C@H]1CN([C@@H](C)CO)C(=O)Cc2cc(NC(=O)Cc3cn(C)c4ccccc34)ccc2O[C@@H]1CN(C)S(=O)(=O)c1cccs1

Screen / compound no.	57	58	59	60	61	62	63	64
DUX4 inh	4	5	1	2	5	3	?	-4
DUX4 inh difference	-3	0	-2	0	-1	4	nt	-4
DUX4 inh control	7.2	4.7	3.0	2.1	6.3	-1.0	nt	-0.2

65) CCCC(=O)N1CC2(CN(C(C)=O)C2)c2c(n(C)c3cc(OC)ccc23)[C@H]1CO
66) C/C=C/c1ccc2c(c1)O[C@H](CN(C)CC1CCOCC1)[C@H](C)CN([C@@H](C)CO)S2(=O)=O
67) COc1ccc2c3c(n(C)c2c1)[C@@H](CO)N(Cc1cccc(Cl)c1)CC31CN(C(=O)C2CC2)C1
68) COc1ccc(C[C@@H]2CCn3nncc3COCCCNC2=O)cc1
69) CCN1CC(=O)N2[C@H](CO)[C@H](c3ccc(Br)cc3)[C@H]2C1
70) CCC(=O)N1CC[C@H]2[C@H](CO)Nc3ccc(-c4ccc(OC)cc4)cc3[C@H]21
71) C[C@H](NC(=O)[C@H]1[C@H](CO)[C@H]2Cn3c(ccc(-c4ccccc4F)c3=O)[C@@H]1N2C)c1ccccc1
72) CCC(=O)N1C[C@H](C)[C@@H](OC)CN(C)C(=O)c2cc(NC(=O)c3ccccc3)ccc2OC[C@H]1C

Screen / compound no.	65	66	67	68	69	70	71	72
DUX4 inh	-6	-4	?	-1	8	14	-1	4
DUX4 inh difference	-7	1	nt	-1	3	11	-3	-1
DUX4 inh control	0.7	-4.1	nt	0.5	5.4	3.6	1.6	4.7
